High-throughput results deposited in PubChem by National Center for Advancing Translational Sciences (NCATS).
Rango dissoc inh: inhibition of RanGTP-driven Rango-importin beta dissociation; Potency, µM (highest dose often 46.1 µM), without a hit: top-dose activity change, negative = inhibition; actives 0.071% (n = 340,000); Biochemical FRET Rango-importin beta, RanGTP-induced dissociation; active means falling FRET ratio curve, often poorly fitted, with flat reads before Ran was added; inconclusive means other falling curves, or compound fluorescence or quenching; inactive means flat or rising ratio curve;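 further: potency means the concentration at half of the fitted maximal effect; % of control where 0% means no effect; nearly all actives have a fitted effect of over 45% in size; -100% = wells without RanGTP and RCC1; the record marks most hits as doubtful in a second field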
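FRET read at 45 min, room temperature: inhibitors block the CFP/YFP signal rise when RanGTP (0.6 uM Ran, 2 mM GTP, 0.2 uM RCC1) frees Rango (0.1 uM) from importin beta (0.25 uM). Pre-read after 5 min compound exposure flags interference.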
miR-21 FLuc: raises the signal of a miR-21 reporter; 340,000 tested, under 10 active; Potency, µM (top dose mostly 38.3 µM), without a hit: at the highest dose reporter change, positive = more light; HeLa miR-21 FLuc reporter, luciferase, 48 h; active = well fitted rising curve with a large enough effect; inconclusive = small, poorly fitted or top-dose-only effect; inactive = no such curve, though single readings can be large or run the other way;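 further: % of control where 0% means no effect; miR-21 action dims this reporter so a rising signal means less miR-21 action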
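HeLa miR-21-FLuc reporter line, endogenous miR-21; 2000 cells/well in DMEM/10% FBS; compound titration up to ~40uM final, 48 h, 37 degree Celsius; luciferase detection reagent, 15 min lysis, CCD luminescence.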
GLA inh pH 4.5: inhibitors of human alpha-galactosidase A at pH 4.5. P06280. purified enzyme, 4-MU-alpha-Gal fluorescence, pH 4.5. activity change, negative = inhibition, % at 105 µM. 230,000 tested, under 10 active; inconclusive = small, poorly fitted or top-dose-only inhibition, or a rising curve; inactive = flat fitted curve, though single readings scatter; no compound was filed as active;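 further: 0% = full activity with enzyme and -100% = basal without enzyme; dose as in the result columns while the protocol names 77 µM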
Target sequence (P06280 whole entry, looked up): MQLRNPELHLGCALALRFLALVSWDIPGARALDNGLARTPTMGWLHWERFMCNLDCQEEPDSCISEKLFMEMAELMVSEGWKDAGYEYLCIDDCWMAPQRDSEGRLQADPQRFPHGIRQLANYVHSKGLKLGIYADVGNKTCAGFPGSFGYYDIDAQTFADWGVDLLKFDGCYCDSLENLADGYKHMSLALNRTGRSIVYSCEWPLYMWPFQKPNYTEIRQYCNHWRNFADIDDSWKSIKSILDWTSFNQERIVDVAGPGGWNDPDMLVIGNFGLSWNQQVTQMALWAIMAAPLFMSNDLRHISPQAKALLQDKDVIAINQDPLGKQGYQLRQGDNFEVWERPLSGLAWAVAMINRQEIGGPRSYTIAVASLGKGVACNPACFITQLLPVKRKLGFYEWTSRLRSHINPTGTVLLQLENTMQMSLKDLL
Rango complex inh: prevents formation of the Rango-importin beta complex; Rango CFP/YFP FRET sensor + importin beta, 45 min; actives 0.031% (n = 340,000); Q14974; Potency, µM (titrated, usually from 92.2 µM), inactives show top-dose inhibition of complex formation; AID 540263; active = rising FRET ratio curve, often small or poorly fitted; inconclusive = mostly compound fluorescence or quenching in the first reads; inactive = flat curves in all reads;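 further: potency means the concentration at half of the fitted maximal effect; 0% = DMSO wells and 100% = buffer wells lacking importin beta; nearly all actives have a fitted effect of over 15% in size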
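Inhibition scored from the CFP 486 nm/YFP 530 nm FRET ratio 45 min after adding 0.125 microM importin beta to 50 nM Rango biosensor preincubated 5 min with compound (room temperature, PBS with DTT, Tween-20, BSA). No-importin wells as positive control.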
* hit, by the source's call; ? = inconclusive; . = no result given; & = joins results of further samples.

[1] CCN(CC)C(=O)c1sc(NC(=O)c2cccnc2)c(C(=O)OC)c1C
[2] COc1ccc(N2CCN(C(=O)C(CCSC)N=C3NS(=O)(=O)c4ccccc43)CC2)cc1 (configuration not stated)
[3] Cc1ccc(NC(=S)NNC(=S)Nc2ccc(C)cc2C)cc1
[4] O=C(CCN1CCN(CCO)CC1)Nc1ccc(OCc2ccccc2)cc1
[5] COc1ccccc1CN1C(=O)[C@@H]2C(CC(N)=O)NC3(C(=O)Nc4c3ccc(Cl)c4C)[C@@H]2C1=O (some centres not stated)
Screen / compound no.,1,2,3,4,5
Rango dissoc inh,5%,0%,-3%,6%,6%
miR-21 FLuc,-4%,-18%,16%,-14%,-9%
GLA inh pH 4.5,-2,-5,9,-8,-3
Rango complex inh,0.3%,2.9%,3.1%,-4.0%,0.0%

[6] O=C(/C=C/NCc1cccnc1)c1ccc(-c2ccccc2)cc1
[7] Cn1cccc1/C=N/NC(=O)CSc1nc2ccccc2[nH]1
[8] CCOc1ccccc1/C=C/C(=O)NCC(=O)N1CCC(N(C)C2CCCCC2C)CC1 (configuration not stated)
[9] CCC(C(=O)NC1CCCC1)N(C(=O)Cn1nnc(-c2ccc(C)o2)n1)c1ccc(OC)c(OC)c1 (configuration not stated)
[10] COc1ccc(C(=O)OCC(=O)Nc2ccc3[nH]c(=O)[nH]c3c2)cc1
Screen / compound no.,6,7,8,9,10
Rango dissoc inh,-14%,6%,-12%,13%,13%
miR-21 FLuc,-9%,1%,-4%,-5%,.
GLA inh pH 4.5,.,-4,.,.,.
Rango complex inh,-1.1%,-1.8%,7.7%,5.3%,-1.7%

[11] CCc1ccccc1N(C(=O)c1cccs1)C1C=CS(=O)(=O)C1 (configuration not stated)
[12] Cc1ccc(NC(=O)COC(=O)CCc2nc3ccccc3n2-c2ccccc2)c(C)c1
[13] CCOc1ccc(N(CC(=O)Nc2ccccc2C(=O)N2CCOCC2)S(=O)(=O)c2ccc(F)cc2)cc1
[14] COc1ccc2c(c1)CCc1c(C(=O)N3CCOCC3)noc1-2
[15] Cc1ccccc1NC(=O)CCCn1nc(C)c2c(C)n(-c3ccccc3)nc2c1=O
Screen / compound no.,11,12,13,14,15
Rango dissoc inh,-10%,11%,11%,-11%,-9%
miR-21 FLuc,0%,-6%,-1%,-46%,-3%
GLA inh pH 4.5,-6,2,-9,-3,.
Rango complex inh,-1.4%,3.8%,-1.3%,5.7%,0.1%

[16] CN(Cc1ccccc1)c1nc2c(c(=O)[nH]c(=O)n2C)n1C
[17] OCCN1CCN(c2cc(C(F)(F)F)nc3ccccc23)CC1
[18] COc1cccc(OCc2ccc(Cl)cc2)c1C#N
[19] COc1cccc(C(=O)O/N=C(\N)c2ccc([N+](=O)[O-])cc2)c1OC
[20] Cc1ccc(C(c2nnnn2C(C)(C)C)N(Cc2ccco2)Cc2cccs2)cc1 (configuration not stated)
Screen / compound no.,16,17,18,19,20
Rango dissoc inh,-11%,8%,-9%,0%,-6%
miR-21 FLuc,1%,-12%,-49%,-51%,25%
GLA inh pH 4.5,0,3,2,-12,-6
Rango complex inh,-2.7%,-0.2%,-2.6%,2.8%,-2.1%

Exported with values ahead of the structure: 10 of the compounds above.
cpd	Rango dissoc inh	miR-21 FLuc	GLA inh pH 4.5	Rango complex inh	structure
1	5%	-4%	-2	0.3%	CCN(CC)C(=O)c1sc(NC(=O)c2cccnc2)c(C(=O)OC)c1C
2	0%	-18%	-5	2.9%	COc1ccc(N2CCN(C(=O)C(CCSC)N=C3NS(=O)(=O)c4ccccc43)CC2)cc1 (configuration not stated)
3	-3%	16%	9	3.1%	Cc1ccc(NC(=S)NNC(=S)Nc2ccc(C)cc2C)cc1
4	6%	-14%	-8	-4.0%	O=C(CCN1CCN(CCO)CC1)Nc1ccc(OCc2ccccc2)cc1
5	6%	-9%	-3	0.0%	COc1ccccc1CN1C(=O)[C@@H]2C(CC(N)=O)NC3(C(=O)Nc4c3ccc(Cl)c4C)[C@@H]2C1=O (some centres not stated)
6	-14%	-9%	.	-1.1%	O=C(/C=C/NCc1cccnc1)c1ccc(-c2ccccc2)cc1
7	6%	1%	-4	-1.8%	Cn1cccc1/C=N/NC(=O)CSc1nc2ccccc2[nH]1
8	-12%	-4%	.	7.7%	CCOc1ccccc1/C=C/C(=O)NCC(=O)N1CCC(N(C)C2CCCCC2C)CC1 (configuration not stated)
9	13%	-5%	.	5.3%	CCC(C(=O)NC1CCCC1)N(C(=O)Cn1nnc(-c2ccc(C)o2)n1)c1ccc(OC)c(OC)c1 (configuration not stated)
10	13%	.	.	-1.7%	COc1ccc(C(=O)OCC(=O)Nc2ccc3[nH]c(=O)[nH]c3c2)cc1

Further structures follow:
[21] CN(C(=S)NC(=O)c1ccc(F)cc1)C1CCCCC1
[22] O=C(COC(=O)CCOc1ccccc1)NCCc1ccccc1
[23] Cc1ccc(OCc2ccc(C(=O)N3CCCC3)o2)cc1C
[24] COc1ccc(Nc2nc(N3CCCC3)nc(N3CCCC3)n2)c(OC)c1
[25] Cc1cc(N2CCOCC2)nc2ccc(NC(=S)N3CCCCC3C)cc12 (configuration not stated)
Screen / compound no.,21,22,23,24,25
Rango dissoc inh,-5%,5%,-19%,16%,-12%
miR-21 FLuc,-35%,.,-40%,-1%,-15%
GLA inh pH 4.5,.,.,.,-4,25
Rango complex inh,5.0%,-0.2%,-1.8%,-3.0%,?

Two compounds picked at random from the list so far, as already listed:
[19] COc1cccc(C(=O)O/N=C(\N)c2ccc([N+](=O)[O-])cc2)c1OC
[24] COc1ccc(Nc2nc(N3CCCC3)nc(N3CCCC3)n2)c(OC)c1
Screen / compound no.,19,24
Rango dissoc inh,0%,16%
miR-21 FLuc,-51%,-1%
GLA inh pH 4.5,-12,-4
Rango complex inh,2.8%,-3.0%

(listing goes on)
[26] O=C(N/N=C/c1ccccc1O)c1ccncc1
[27] COCCCN(C(=O)CSCc1ccc(C)cc1)c1c(N)n(Cc2ccccc2)c(=O)[nH]c1=O
[28] Cc1ccc(SCCC(=O)Nc2ccccc2C(=O)NC2CCCCC2)cc1
[29] CCOc1ccc(C(=O)OCC(=O)Nc2cccnc2Cl)cc1OCC
[30] CCOC(=O)c1ccc(NC(=S)N(CCCN2CCN(C)CC2)Cc2cccs2)cc1
Screen / compound no.,26,27,28,29,30
Rango dissoc inh,0%,-13%,2%,-13%,3%
miR-21 FLuc,.,.,-8%,.,-7%
GLA inh pH 4.5,.,.,0,.,-8
Rango complex inh,-1.2%,?,2.1%,-0.2%,5.9%

[31] O=C(O)C1CCN(C(=O)c2ccc3c(c2)OCO3)CC1
[32] CCN(C(=O)COc1cccnc1[N+](=O)[O-])C1CCS(=O)(=O)C1 (configuration not stated)
[33] Cc1ccc(-c2nc(CSCC(=O)N3CCOCC3)c(C)o2)cc1
[34] O=C(c1ccncc1)c1ccc(Br)cc1
[35] O=C1c2ccccc2C(Nc2ccc3c(c2)OCO3)N1Cc1ccco1 (configuration not stated)
Screen / compound no.,31,32,33,34,35
Rango dissoc inh,5%,1%,16%,4%,1%
miR-21 FLuc,-2%,-3%,-12%,-5%,-21%
GLA inh pH 4.5,.,-10,-2,2,3
Rango complex inh,-0.7%,-2.4%,1.9%,-3.5%,-1.1%

[36] Cc1cccc(C(=O)O/N=C(\c2ccccc2)c2cccnc2)c1
[37] COc1ccc2oc(=N)c(C(=O)NCc3ccccc3)cc2c1
[38] Cc1ccc(O)c(C(=O)c2cnc3c(c2)c(-c2ccc(F)cc2)c(C#N)c(=O)n3C)c1
[39] Cn1ncc2c(Nc3cc(Cl)cc(Cl)c3)ncnc21
[40] COc1ccccc1N1CCN(C(=O)c2ccc(Br)o2)CC1
Screen / compound no.,36,37,38,39,40
Rango dissoc inh,-4%,-19%,0%,1%,1%
miR-21 FLuc,4%,0%,-6%,1%,.
GLA inh pH 4.5,-6,.,-8,.,.
Rango complex inh,-1.0%,0.4%,-1.5%,5.5%,-0.3%

[41] COc1ccc([C@H]2CC(=O)C=C(c3ccccc3)C2)cc1OC
[42] c1ccc(CCc2nc3ccccc3[nH]2)cc1
[43] N/C(=N\OC(=O)Cc1ccc(-c2ccccc2)cc1)c1cccnc1
[44] CCOC(=O)N/N=C/C=C/c1ccccc1
[45] CN=C1SC(C(=O)O)CC(=O)N1C (configuration not stated)
Screen / compound no.,41,42,43,44,45
Rango dissoc inh,?,-15%,1%,-7%,2%
miR-21 FLuc,.,-73%,4%,-53%,1%
GLA inh pH 4.5,.,2,-3,5,-3
Rango complex inh,-3.0%,0.5%,1.2%,-1.0%,0.8%

[46] Cc1ccc(S(=O)(=O)N2CCN(CC(=O)N3CCOCC3)CC2)cc1
[47] CC(NCc1ccc(S(N)(=O)=O)cc1)C(=O)Nc1cc([N+](=O)[O-])ccc1Cl (configuration not stated)
[48] O=C(/C=C/c1ccccc1)C1=C(O)C(=O)N(CCO)C1c1ccc2c(c1)OCO2 (configuration not stated)
[49] N/C(=N\OC(=O)C1CCCCC1)c1ccncc1
[50] COc1cc(OC)cc(C(=O)NCC(=O)N2CCN(S(=O)(=O)c3ccccc3F)CC2)c1
Screen / compound no.,46,47,48,49,50
Rango dissoc inh,-8%,2%,-37%,-11%,0%
miR-21 FLuc,1%,-3%,-1%,-22%,.
GLA inh pH 4.5,.,1,0,-10,.
Rango complex inh,-3.3%,-3.7%,?,-2.1%,-6.4%

[51] Cc1noc(C)c1COc1ccc(C(=O)OCC(=O)NC(=O)C2COc3ccccc3O2)cc1 (configuration not stated)
[52] Cc1ccc(C(OCC(O)CN2CCCCC2CO)c2ccccc2)cc1 (configuration not stated)
[53] Cc1nnc2n1N=C(c1ccc(F)cc1F)CS2
[54] CCCCn1nc(C(=O)N[C@@H](CCSC)c2nc3ccccc3[nH]2)c2ccccc2c1=O
[55] Cc1cccc2c(SCC(N)=O)nc(-c3ccccc3)nc12
Screen / compound no.,51,52,53,54,55
Rango dissoc inh,-10%,30%,-18%,12%,-3%
miR-21 FLuc,3%,-11%,.,-8%,0%
GLA inh pH 4.5,3,5,.,5,.
Rango complex inh,2.3%,-5.1%,-0.3%,-3.7%,-1.8%

[56] CC(CCOC1=NS(=O)(=O)c2ccccc21)NC(=O)C(=O)Nc1ccccc1 (configuration not stated)
[57] C=C1CCN(c2ccc(C(=O)NCc3ccc(OC)cc3)cc2[N+](=O)[O-])CC1
[58] C/C(N)=C(/C#N)C(=O)COC(=O)c1cc(C)n(-c2ccc(F)cc2)c1C
[59] COc1ccc(NS(=O)(=O)c2cccc(C(=O)NCC(c3ccco3)N(C)C)c2)cc1 (configuration not stated)
[60] Cc1ccc(NC(=O)COC(=O)c2cccc(C)c2[N+](=O)[O-])cc1S(=O)(=O)N1CCCCC1
Screen / compound no.,56,57,58,59,60
Rango dissoc inh,-18%,-6%,8%&1%,5%,30%
miR-21 FLuc,-28%,.,-7%,.,.
GLA inh pH 4.5,2,.,3,.,.
Rango complex inh,-1.4%,?,4.0%&-5.0%,-3.6%,-2.2%

[61] Cc1ccc(C(=O)NNC(=O)c2ccc(S(=O)(=O)N3CCOCC3)cc2)cc1
[62] COc1ccc(-n2c3c(c(=O)[nH]c2=O)C(NC(=O)c2ccncc2)(C(F)(F)F)C(=O)N3)cc1 (configuration not stated)
[63] Cc1cccc(CSc2nnc(-c3ccccn3)n2N)c1
[64] COc1cccc(NC(=O)c2sc(NC(=O)c3ccncc3)nc2C)c1
[65] Cc1ccc(NC(=O)CSCC#N)cc1Cl
Screen / compound no.,61,62,63,64,65
Rango dissoc inh,-11%,10%,20%,-22%,-12%
miR-21 FLuc,-1%,0%,-19%,6%,-5%
GLA inh pH 4.5,.,-4,3,-2,0
Rango complex inh,-0.9%,2.9%,-0.3%,-4.7%,0.1%

[66] COc1cc(NC(=S)N2CCN(C/C=C/c3ccccc3)CC2)cc(OC)c1
[67] CCC(C)NC(=O)c1cc2c(=O)[nH]c3ccc(C)cc3c2s1 (configuration not stated)
[68] Cc1cccc2cc(C#N)c(SCC(=O)Nc3ccccc3N3CCOCC3)nc12
[69] CCN1CCN(C(=O)CN(CC)S(=O)(=O)c2ccc(F)cc2)CC1
Screen / compound no.,66,67,68,69
Rango dissoc inh,-4%,4%,-8%,-5%
miR-21 FLuc,-10%,-9%,-2%,-1%
GLA inh pH 4.5,-4,.,5,.
Rango complex inh,-3.6%,0.3%,-2.3%,-3.3%

An excerpt. The share of hits here may be higher or lower than overall.
